# Bioassay records (PubChem BioAssay)
# Mtb betalactam: beta-lactam sensitization of Mtb H37Rv | M. tuberculosis H37Rv growth with meropenem, percent inhibition; hits of this screen are not shown here | inhibition, % at 25 µM | hit rate 0.27% among 330,000 | AID 434955;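 active = about 74% or more and at least 40 points above the plate without the antibiotic, then above 30% in a dose series; inconclusive = first-round hits that could not be retested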;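 note: growth measured after seven days incubation then overnight dye step; 0% = bacteria only wells and 100% = bacteria with antibiotic; twin plates without the antibiotic show which effects depend on it; some results filed as inactive read as strong as hits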
# RecA intein inh: inhibitors of M. tuberculosis RecA intein splicing; P9WHJ3; cell-free RecA intein splicing, fluorescence; inhibition, %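 (about 9 µM by stock and volumes)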; hit rate 0.75% among 290,000; AID 2221; in the data active = inhibition above about 30%; inconclusive = no clear call, values can overlap the other calls;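 note: 0% = vehicle wells and 100% = reference inhibitor control wells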
# Target sequence (P9WHJ3 whole entry, looked up): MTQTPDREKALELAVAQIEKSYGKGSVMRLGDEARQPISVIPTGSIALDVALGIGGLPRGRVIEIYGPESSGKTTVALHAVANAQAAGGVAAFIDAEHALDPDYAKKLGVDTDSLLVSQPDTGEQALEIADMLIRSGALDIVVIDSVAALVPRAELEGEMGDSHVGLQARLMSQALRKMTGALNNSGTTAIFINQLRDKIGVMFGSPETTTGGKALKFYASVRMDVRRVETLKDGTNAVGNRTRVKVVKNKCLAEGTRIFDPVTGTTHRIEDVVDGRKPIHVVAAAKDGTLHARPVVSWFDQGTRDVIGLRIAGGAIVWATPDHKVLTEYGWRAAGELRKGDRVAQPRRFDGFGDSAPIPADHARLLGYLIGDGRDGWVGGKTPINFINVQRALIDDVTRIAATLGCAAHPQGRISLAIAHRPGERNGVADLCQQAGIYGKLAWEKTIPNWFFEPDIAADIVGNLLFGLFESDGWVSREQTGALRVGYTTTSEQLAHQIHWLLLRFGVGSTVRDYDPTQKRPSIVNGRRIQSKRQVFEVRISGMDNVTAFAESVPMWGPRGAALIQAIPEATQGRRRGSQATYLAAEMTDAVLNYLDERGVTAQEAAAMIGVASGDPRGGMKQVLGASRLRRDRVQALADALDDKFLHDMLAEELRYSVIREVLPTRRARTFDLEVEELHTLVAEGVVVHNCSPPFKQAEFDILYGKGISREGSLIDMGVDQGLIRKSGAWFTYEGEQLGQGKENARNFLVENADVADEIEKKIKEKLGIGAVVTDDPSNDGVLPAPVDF
# Arbovirus inh: arbovirus infection inhibition. AID 1251. arbovirus infection cell-based antiviral screen. inhibition, % at 10 µM. hit rate 0.37% among 200,000;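 active = inhibition from about 30%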;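 note: bluetongue infection of BSR cells; cell survival read as ATP light after 72 h; 0% = infected wells without compound and 100% = uninfected wells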
# YopH inh: YopH (Yersinia) phosphatase inhibition | fluorescence Ex485/Em525 | inhibition, %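 (about 10 µM by stock and volumes)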 | hit rate 0.16% among 140,000;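 active = inhibition of 50% or more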;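 note: controls were vehicle for no effect and minimum signal wells for full effect; inactives centre near -20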
# Mtb H37Rv: M. tuberculosis H37Rv growth inhibitors, H37Rv strain (AID 1626); M. tuberculosis H37Rv growth inhibition; higher % means a stronger effect; inhibition, % at 10 µM; hits with a dose series show IC50 in µM; hit rate 0.95% among 220,000;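 active = confirmed in a dose series; inconclusive = inhibition above 80% but not taken into the dose series; inactive = below 80% or under 30% at every dose of the series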;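 note: bacteria incubated seven days before Alamar blue readout; 0% = bacteria only wells and 100% = bacteria with antibiotic wells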
# Arbovirus inh repeat: recorded beside Arbovirus inh, whose call it bears; inhibition, %; measured here: 10K subset replicate screen; many hits read low in the repeat;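 first of two repeat runs on a subset; 0% = infected and 100% = uninfected wells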
# Active calls of the source: *; u = inconclusive; x = no result given.
SMILES,Mtb betalactam,RecA intein inh,Arbovirus inh,YopH inh,Mtb H37Rv,others
Cc1cc(C)c(-c2cc(C(=O)Nc3c(C)n(C)n(-c4ccccc4)c3=O)[nH]n2)c(O)c1,9,2.8,13,-20,-1%,
Cn1cnc([N+](=O)[O-])c1SCCO,3,-2.3,x,x,-5%,
Cc1cc(NC(=O)c2ccc(Cl)c(S(=O)(=O)N3CCOCC3)c2)no1,-2,-5.3,4,x,0%,
CCOc1ncccc1C(=O)Nc1ccc(Cl)c(S(=O)(=O)N2CCCC2)c1,2,-4.4,-2,x,1%,
CC(NC(=O)c1ccco1)C1COc2ccccc2O1 (stereo not drawn),-13,-4.4,12,-13,-12%,
Cn1c(=O)c2c(nc(CN3CCN(C(=O)c4ccco4)CC3)n2CC(=O)C(C)(C)C)n(C)c1=O,-13,16,x,x,x,
CCn1cc(C2N3CC4(C)CN2CC(C)(C3)C4=O)c2ccccc21 (stereo not drawn),-4,0.6,-5,-33,0%,Arbovirus inh repeat=6
COc1ccc(/C=C/C(=O)NC(CCSC)C(=O)O)cc1 (stereo not drawn),1,4.3,-3,x,-4%,
Cc1ccccc1NC(=O)CCN1CCCC1,38,0.2,2,x,-9%,
O=C(CCC(=O)Nc1ccc(Br)cc1)N/N=C/c1ccc(O)cc1,-4,-1.5,x,x,x,
COc1ccccc1NC(=S)N(Cc1ccc(C)cc1)Cc1ccccn1,6,3.7,1,x,-4%,
Cc1ccccc1C(=O)NC(=S)NC1CCS(=O)(=O)C1 (stereo not drawn),-20,-3.0,x,x,x,
CCC(C)/C(C)=N/NC(=O)c1ccc(COc2ccc(Cl)c(C)c2)cc1 (stereo not drawn),-1,x,-19,-22,11%,
CCCc1nnc(NC(=O)CCC(=O)NC2CCCC2)s1,4,-0.4,x,x,x,
Cc1c(CCOC(=O)c2ccc([N+](=O)[O-])cc2)sc[n+]1CC(=O)c1ccccc1,-1,0.0,1,x,-7%,
COc1ccc(-c2cc(C(=O)Nc3cc(S(=O)(=O)N4CCOCC4)ccc3N3CCOCC3)c3ccccc3n2)cc1,-5,0.2,3,x,6%,
Cc1cc(NC(=O)c2ccc(F)cc2)no1,-7,0.1,x,x,x,
COP(=O)(OC)c1nc(-c2ccc(C)cc2)oc1N1CCCCC1,7,-3.6,x,x,x,
O=C(CSc1nnc2c(n1)[nH]c1ccc(S(=O)(=O)N3CCOCC3)cc12)Nc1ccc(F)c(F)c1,2,0.2,-1,x,-10%,
CC(=O)Nc1cccc(OCC(=O)Nc2ccc(F)cc2)c1,-4,0.7,1,-6,x,
COCCn1c(SCC(=O)Nc2ccc(S(N)(=O)=O)cc2)nc2ccccc21,-2,-4.0,-3,-27,-9%,
COCCNc1ncnc2c1cnn2Cc1ccccc1Cl,-3,-1.7,x,x,x,
Cc1ccc(NC(=O)CCS(=O)(=O)c2cccc3nonc23)c(Br)c1,13,-11,x,x,x,
O=C(c1cc2c(s1)CCCC2)N1CCN(S(=O)(=O)c2ccccc2)CC1,-5,4.5,x,x,x,
Cn1nc(-c2ccccc2)c(C(=O)Nc2ccc(Cl)cc2)c1Cl,-4,-1.7,-1,-41,-1%,
COc1ccc(NC(=O)CCNC(C)=O)cc1NS(=O)(=O)c1ccc(F)cc1,5,2.4,-3,-8,-7%,
O=C(COc1cccc2ccccc12)N1CCN(c2ccccc2)CC1,-15,-0.4,9,0,3%,Arbovirus inh repeat=7
Cc1cccc(OCC(=O)Nc2sc3c(c2C#N)CCC3)c1,0,-0.8,-2,-15,-9%,
Cc1nnc(NC(=O)C2CCCN(c3ncccn3)C2)s1 (stereo not drawn),u,-3.6,7,-35,-12%,
O=C(O)C1C2CCC(O2)C1C(=O)NCc1ccncc1 (stereo not drawn),-2,0.6,7,3,0%,
CC(=O)c1ccc(NC(=O)CSc2nnc(Cn3c(=O)sc4ccccc43)n2C)cc1,0,x,8,-25,-1%,Arbovirus inh repeat=2
CCN1CCN(c2sc(S(C)(=O)=O)nc2S(=O)(=O)c2ccc(C)cc2)CC1,-4,-1.8,x,x,x,
COC(=O)CCCCC1SCC(NC(=O)c2ccccc2)C1=O (stereo not drawn),99,-0.4,7,x,x,
c1coc(CNC2C3CC4CC(C3)CC2C4)c1 (stereo not drawn),1,-1.1,3,-8,1%,
CCCn1cnc2cc(NCc3ccccn3)ccc21,-6,-1.2,-3,0,16%,Arbovirus inh repeat=-5
O=C(NCc1ccc2c(c1)OCO2)NC1CCCCC1,1,-0.5,0,x,-2%,
Cc1c(Cl)cccc1NC(=O)C1Cc2ccccc2CN1C(=O)c1ccccc1 (stereo not drawn),7,2.8,6,-26,10%,
CCS(=O)(=O)Nc1cccc(C2=NN(S(=O)(=O)c3ccc(C)cc3)C(c3cccs3)C2)c1 (stereo not drawn),8,14,4,-22,3%,
CC(N=C1NS(=O)(=O)c2ccccc21)C(=O)NCCCc1ccccc1 (stereo not drawn),-7,1.1,2,x,5%,
COc1ccccc1CC(=O)N(CCC1=CCCCC1)c1c(N)n(Cc2ccccc2)c(=O)[nH]c1=O,-14,-0.6,x,x,x,
CC(C)Nc1ccc(Cl)cc1[N+](=O)[O-],2,-2.0,x,x,1%,
Cc1cccc(Nc2cc(=O)n(C)c(=O)[nH]2)c1,5,2.1,x,x,x,
Clc1ccccc1CSc1nnc(-c2ccncc2)o1,4,1.3,-20,-3,-3%,
COc1ccc(C(CC(=O)N2CCCC2)c2c(O)cc(OC)cc2OC)cc1 (stereo not drawn),-4,3.0,x,x,-17%,
CCC(C)NC(=O)C1CCC(=O)N(c2cc(OC)c(OC)c(OC)c2)C1c1ccc(OC)cc1 (stereo not drawn),0,0.5,-3,-33,-1%,
O=C(O)c1cccc(NC(=O)c2cn(-c3ccccc3)nc2-c2ccc(F)cc2)c1,2,-0.2,x,x,x,
N#Cc1ccc(COn2nnc3ccccc32)cc1,-1,-1.2,-4,x,-5%,
Cc1ccc(Nc2nc3c([nH]2)c(=O)n(C)c(=O)n3C)cc1,4,-2.0,11,14,0%,
CCc1ccccc1NC(=O)N1C2CCCC1CC(NC(=O)C(C)(C)C)C2 (stereo not drawn),-3,x,8,-9,-4%,
COc1ccccc1OCCCC(=O)Nc1ccc(N2CCOCC2)cc1,-3,0.3,-5,x,-1%,
Cc1ccnc(N2CCC(C(=O)NCc3ccc(F)cc3)CC2)n1,-3,0.0,1,x,-9%,
COc1cccc(/C=C2/Sc3ccc(C(=O)NCCCN4CCCC4)cc3NC2=O)c1,2,0.5,x,x,x,
N#Cc1cc2ccccc2nc1SCc1ccccn1,74,3.9,3,-20,10%,
CCNC(=O)CCn1nc(-c2ccc(C)cc2)c2ccccc2c1=O,2,0.2,x,x,x,
Oc1cnc2ccccc2c1CN1CCOCC1,-5,-6.1,6,-3,3%,
O=C(CNc1cccc2ccccc12)N/N=C/c1cccc(Oc2ccccc2)c1,10,5.1,-4,-24,u,
CCC(C)NC(=O)C1CCN(S(=O)(=O)c2ccc3nc4c(c(C(=O)O)c3c2)CCCCC4)CC1 (stereo not drawn),-1,-2.9,x,x,x,
CCN(C(=O)c1cc(Cl)ccc1OC)c1ccccc1C,0,-1.3,0,-5,4%,
O=C(CSc1nnc(NC(=O)c2ccco2)s1)NC1CCCC1,5,-0.8,-11,-3,-8%,
COc1ccccc1CNC(=O)COC(=O)Cc1c(Cl)cccc1Cl,-1,0.9,5,-28,-1%,

# Next part; it opens with the seven that closed the last part.
SMILES,Mtb betalactam,RecA intein inh,Arbovirus inh,YopH inh,Mtb H37Rv,others
CCNC(=O)CCn1nc(-c2ccc(C)cc2)c2ccccc2c1=O,2,0.2,x,x,x,
Oc1cnc2ccccc2c1CN1CCOCC1,-5,-6.1,6,-3,3%,
O=C(CNc1cccc2ccccc12)N/N=C/c1cccc(Oc2ccccc2)c1,10,5.1,-4,-24,u,
CCC(C)NC(=O)C1CCN(S(=O)(=O)c2ccc3nc4c(c(C(=O)O)c3c2)CCCCC4)CC1 (stereo not drawn),-1,-2.9,x,x,x,
CCN(C(=O)c1cc(Cl)ccc1OC)c1ccccc1C,0,-1.3,0,-5,4%,
O=C(CSc1nnc(NC(=O)c2ccco2)s1)NC1CCCC1,5,-0.8,-11,-3,-8%,
COc1ccccc1CNC(=O)COC(=O)Cc1c(Cl)cccc1Cl,-1,0.9,5,-28,-1%,
Cc1cccnc1NC(=O)C1CCCN1S(=O)(=O)c1ccc(Cl)cc1 (stereo not drawn),-1,-0.6,x,x,x,
O=C(Cn1c2c(sc1=O)C1c3ccccc3OCC1CS2)Nc1ccc(Cl)c(Cl)c1 (stereo not drawn),-5,-0.5,-4,7,-2%,
c1cncc(-c2noc(-c3cccc4ccccc34)n2)c1,50,0.7,5,-25,0%,
O=C(NC1CCC(O)CC1)c1ccccc1OCc1ccc(F)cc1 (stereo not drawn),-10,-0.5,x,x,x,
COc1ccc(-c2cc(-c3c(O)c(OC)c4occc4c3OC)[nH]n2)cc1,95,24,12,4,4%,
Cn1nc(C(=O)Nc2ccccc2Cl)cc1C(=O)Nc1ccccc1Cl,-5,-1.6,x,x,x,
CCc1nc(C)ccc1OCC(=O)N(CC)CC,-1,0.9,1,-19,-3%,
COCCC(=O)Nc1c(-c2ccccc2)c2cc(Br)ccc2[nH]c1=O,3,2.1,x,x,x,
Cc1nc(C(=O)Nc2ccccc2)sc1C1(C)CC(c2cccc([N+](=O)[O-])c2)=NO1 (stereo not drawn),-4,0.0,x,x,1%,
CCn1ncc(-c2ccnc3cc(C(=O)O)nn23)c1C,-3,4.8,20,x,-1%,
O=c1c2cc(O)c(O)cc2oc2cc(O)c(C3OC(CO)C(O)C(O)C3O)c(O)c12 (stereo not drawn),5,-33,x,x,x,
COCCCn1[nH]c2c3c(ccc2c1=O)C(=O)c1ccccc1C3=O,74,-2.1,-34,-16,9%,
CC(C)(C)CC(=O)NC(=S)NCc1ccco1,-2,3.3,1,x,7%,
Cc1ccc(-c2cc(C(F)F)n3ncc(C(=O)N4CCN(c5cccc(C)c5C)CC4)c3n2)cc1,96,9.6,3,-5,54%,
CC(C)Cn1c(SC(C)C(=O)Nc2ccc3c(c2)OCCO3)nc2ccccc2c1=O (stereo not drawn),x,14,-11,-51,-6%,
CC(C)Cn1c(N)c(C(=O)COC(=O)COc2cccc(C(F)(F)F)c2)c(=O)n(C)c1=O,9,0.0,x,x,x,
CCOc1cccc(CNCCO)c1OCc1ccc(Cl)cc1,-2,0.6,-4,-14,4%,
COCCCNC(=O)c1cccc2c(=O)c(C)c(-c3ccccc3)oc12,-3,3.4,6,-5,-5%,
S=c1nc(-c2ccccc2Cl)n(Cc2cccnc2)c2c1CCCC2,-8,-2.6,2,-9,-11%,
CC1(C)OC2CCN3C(C(O)COS3(=O)=O)C2O1 (stereo not drawn),-9,-3.1,x,x,x,

# Already shown: entries from further up.
SMILES,Mtb betalactam,RecA intein inh,Arbovirus inh,YopH inh,Mtb H37Rv,others
Cc1cccnc1NC(=O)C1CCCN1S(=O)(=O)c1ccc(Cl)cc1 (stereo not drawn),-1,-0.6,x,x,x,
O=C(Cn1c2c(sc1=O)C1c3ccccc3OCC1CS2)Nc1ccc(Cl)c(Cl)c1 (stereo not drawn),-5,-0.5,-4,7,-2%,
c1cncc(-c2noc(-c3cccc4ccccc34)n2)c1,50,0.7,5,-25,0%,

# Next part.
SMILES,Mtb betalactam,RecA intein inh,Arbovirus inh,YopH inh,Mtb H37Rv,others
c1ccc2c(c1)CCN(c1ncnc3c1[nH]c1ccccc13)C2,99,x,-16,x,x,
CC(C)(C)NC(=O)COC(=O)CCC(=O)c1ccc(Cl)cc1,3,-0.5,13,x,-6%,
CCn1cc(/C=N/NS(=O)(=O)c2ccc(OC)cc2)c(C)n1,6,-0.1,-4,-27,0%,
O=C(NC1CCCC1)c1ccc(CS(=O)(=O)c2ccc(Br)cc2)o1,-3,-0.1,1,-37,-4%,Arbovirus inh repeat=-3
O=C(Cc1ccccc1)c1c[nH]c(C(=O)C(Cl)(Cl)Cl)c1,-2,69*,x,x,x,
CC(C)(C)c1ccc(C(=O)NNC(=O)Cc2cccc3ccccc23)cc1,46,-1.8,13,10,29%,
O=[N+]([O-])c1cccc(/C=C/c2ccc3cccc(O)c3n2)c1,84,0.3,x,x,x,

# Reprinted at random: 2 records from the list, in no set order.
SMILES,Mtb betalactam,RecA intein inh,Arbovirus inh,YopH inh,Mtb H37Rv,others
c1ccc2c(c1)CCN(c1ncnc3c1[nH]c1ccccc13)C2,99,x,-16,x,x,
O=[N+]([O-])c1cccc(/C=C/c2ccc3cccc(O)c3n2)c1,84,0.3,x,x,x,

# This is a subset, so the mix of outcomes need not match the whole.
